Bioassay records: PubChem BioAssay, National Center for Advancing Translational Sciences (NCATS)
VACV mCherry inh – qHTS for Stage-Specific Inhibitors of Vaccinia Orthopoxvirus: mCherry Reporter Primary qHTS; Vaccinia virus mCherry reporter infection, fluorescence; about a quarter of the inactives have no number; 310,000 compounds, 0.63% hits; Potency, µM (highest dose often 36.5 µM), inactives show at the top dose activity change, negative = inhibition, most hits filed as inhibitors; active = well fitted inhibition curve with a large enough effect; inconclusive = small, poorly fitted or top-dose-only effect; inactive = no such curve, though single readings can be large or run the other way; tested in A549 cells; further: nearly all actives have a fitted effect of over 35% in size; inactives centre near -10
Vaccinia Venus – qHTS for Stage-Specific Inhibitors of Vaccinia Orthopoxvirus: Venus Reporter Primary qHTS; Vaccinia virus Venus reporter expression, fluorescence; 330,000 compounds, 0.46% hits; Potency, µM (doses to about 36.5 µM), without a hit: at the highest dose activity change, negative = inhibition, actives largely listed as inhibitors; active means well fitted inhibition curve with a large enough effect; inconclusive means small, poorly fitted or top-dose-only effect; inactive means no such curve, though single readings can be large or run the other way; tested in A549 cells; further: nearly all actives have a fitted effect of over 30% in size; inactives centre near -10
Starred values were filed as active, the others as inactive; i = inactive; ? = inconclusive; . = no result given; [ ] = another dose, or the depositor's remark. On the % scale 0 is the no-effect control and ±100 the full control effect; potency means the concentration at half of the fitted maximal effect. Outcome played no part in choosing rows; 0.87% or so of the library scored in one or more.

SMILES	VACV mCherry inh	Vaccinia Venus
CC1(C(=O)Nc2ccc(F)c(Cl)c2)Cc2c(-c3cccc(C(N)=O)c3)ccnc2O1 (stereo not given)	4%	-21%
COC(=O)c1ccc(COC(=O)c2cnc(Cl)c(Cl)c2)cc1	-12%	5%
Cc1ccc(S(=O)(=O)N2CCN(C(=O)c3cccc(-n4cccc4)c3)CC2)cc1	-21%	-14%
CCOC(=O)c1nnn(-c2nonc2-c2ccccc2)c1C	.	-16%
CC(Oc1ccccc1F)C(=O)NNC(=O)C1CC(=O)N(c2ccc3c(c2)OCCO3)C1 (stereo not given)	-7%	1%
Oc1cccc(C(=S)N2CCCCC2)c1	-3%	-13%
COc1ccc(/C=N/NC(=O)CCn2cnc(-c3ccccc3)c2-c2ccccc2)cc1OC	i	-5%
COc1cc(Br)cc(CNc2ccc(F)c([N+](=O)[O-])c2)c1O	?	-3%
Cc1ccc(C(=O)N2CC(=O)Nc3ccc(F)cc3C2c2ccc(F)cc2)cc1[N+](=O)[O-] (stereo not given)	i	-22%
O=C(CCC1N=C2c3ccccc3N=C(SCC(=O)NCc3ccco3)N2C1=O)NCc1ccco1 (stereo not given)	-15%	-10%
CCOc1ccc(/C=N/OCC(=O)NCc2ccco2)cc1	i	0%
COc1ccc(CNC(=O)Cc2cccs2)cc1OC	-7%	-1%

Some values from above:
COC(=O)c1ccc(COC(=O)c2cnc(Cl)c(Cl)c2)cc1 – Vaccinia Venus = 5%
Cc1ccc(S(=O)(=O)N2CCN(C(=O)c3cccc(-n4cccc4)c3)CC2)cc1 – Vaccinia Venus = -14%
CC1(C(=O)Nc2ccc(F)c(Cl)c2)Cc2c(-c3cccc(C(N)=O)c3)ccnc2O1 (stereo not given) – Vaccinia Venus = -21%
O=C(CCC1N=C2c3ccccc3N=C(SCC(=O)NCc3ccco3)N2C1=O)NCc1ccco1 (stereo not given) – Vaccinia Venus = -10%

New compounds follow:
SMILES	VACV mCherry inh	Vaccinia Venus
Cc1cccc2sc(N(Cc3cccnc3)C(=O)C3COc4ccccc4O3)nc12 (stereo not given)	i	-17%
CC(C)(C)CC(C)(C)Nc1c(-c2ccc(O)cc2)nc2cnccn12	-17%	-27%
Cc1ccc(C(=O)Nc2cccc(-c3nc(CNC(=O)c4ccccc4-n4cccn4)c(C)o3)c2)s1	-6%	-11%
NC(Cc1ccc(O)cc1)C(=O)NN=Cc1ccc(N(CCCl)CCCl)cc1 (stereo not given)	-2%	-18%
COc1ccc(NC(=O)CSC2CCCCC2)cc1	-2%	-12%
O=C(O)CCC(=O)Nc1ccc(Sc2ccc([N+](=O)[O-])cc2)cc1	-7%	-1%
CC(C)C[C@H]1CN([C@@H](CC(C)C)CN2CCCC2CN2C(=S)NC[C@@H]2Cc2ccc(O)cc2)C(=S)N1CCc1ccccc1 (stereo not given in full)	-18%	-13%
COc1ccc(-c2cc(-c3ccccc3)c(C#N)c(SCC(=O)Nc3ncc(C)s3)n2)cc1	-23%	-7%
COc1ccc(CC(=O)Nc2ccc(S(=O)(=O)N(C)C)cc2)cc1OC	-28%	-13%
Cc1cc(N/N=C/c2ccc(O)cc2O)nc(-n2nc(C)cc2C)n1	?	?
O=C(Nc1ccc(C(=O)N2CCCC2)cc1)c1ccccc1[N+](=O)[O-]	0%	-11%
CC(=O)Nc1ccc(S(=O)(=O)N2CCC(n3c(C(F)(F)F)nc4cccnc43)CC2)cc1	-10%	2%
O=C(NCC1CCCO1)/C(=C\c1ccccc1)NC(=O)c1ccccc1 (stereo not given)	-10%	-7%
COc1ccc(/C=N/Nc2nc(C)cc(-c3ccccc3)n2)c(OC)c1	-23%	-15%
CCc1ccccc1NC(=O)CC(C)n1nc(C)cc1C (stereo not given)	1%	-2%
COc1cc(OC)cc(C(=O)Nc2nnc(NC(=S)Nc3ccccc3)s2)c1	-11%	-13%
CC(C)=C1C2CCC1C(C(=O)Nc1sc(C)c(-c3ccc(C(C)C)cc3)c1C(N)=O)C2C(=O)O (stereo not given)	-23%	?
C=CCN1C(c2cccc(C(F)(F)F)c2)=CS/C1=C(\C#N)c1nnc(N2CCOCC2)n1-c1ccccc1	-3%	-25%
CC(=O)c1ccc(NC(=O)CCc2nnc3ccc(N4CCC5(CC4)OCCO5)nn23)cc1	-5%	-16%
Cc1ccc2[nH]c(C(=O)N3CCCCC3)cc2c1	-29%	-28%
COc1cccc(-c2nnc3n(Cc4ccc(F)cc4)c(=O)c4ccccc4n23)c1	-9%	5%
COc1ccc(CNC(=O)Nc2cccc(C(F)(F)F)c2)cc1OC	-23%	-25%
Cc1ccc(Oc2ncccc2N)c2c1CCC2	-6%[7.34 µM]	-6%[7.34 µM]
COc1ccc(C(=O)N2CCC(n3nnc4cc(F)ccc43)CC2)cc1OC	i	-8%
COCc1ccc(CN2CCCC(C(=O)c3sccc3C)C2)o1 (stereo not given)	i	-10%
COc1ccccc1N(C(C)=O)C1=C(Cl)C(=O)c2ccccc2C1=O	?	?
O=C1NC(=S)/C(=C\c2ccc(-c3ccccc3Cl)o2)S1	i	-2%
CCOC(=O)C1(Cc2ccccc2C)CCCN(C(=O)CN2C(=O)CSC2=O)C1 (stereo not given)	-25%	-8%
COCCNC(=O)C(c1ccc(O)cc1)N(Cc1ccco1)C(=O)CCC(=O)Nc1ccccn1 (stereo not given)	-17%	2%
CNC(=O)/C(C#N)=C/c1c(N(Cc2ccccc2)Cc2ccccc2)nc2c(C)cccn2c1=O	-13%	?
CCc1ccccc1NC(=O)c1cccc(Oc2ccc([N+](=O)[O-])cc2Cl)c1	-26%	-9%
CC(=O)Nc1ccc(Oc2ccc(-c3noc(C)n3)cc2)cc1	.	-15%
COc1cc(/C=N/O)cc(Br)c1OS(=O)(=O)c1ccc(C)cc1	?	?
COC(=O)C1=C(C(=O)OC)[C@@H]2N(Cc3ccccc3)c3ccccc3[C@@]23C[C@@H](C(=O)OC)N(C(=O)c2cccs2)C3=N1	?	?
Cc1ccc(CNC(=O)CSc2nc3n[nH]c(C)c3c(=N)n2-c2cccc(C)c2)cc1	-16%	-11%
Nc1nc(-c2ccccc2)c(N=Nc2cccc3ccccc23)s1	?	?

One compound at a time (already shown).
Shown for Cc1ccc(CNC(=O)CSc2nc3n[nH]c(C)c3c(=N)n2-c2cccc(C)c2)cc1 : VACV mCherry inh = -16%; Vaccinia Venus = -11%
Shown for CNC(=O)/C(C#N)=C/c1c(N(Cc2ccccc2)Cc2ccccc2)nc2c(C)cccn2c1=O : VACV mCherry inh = -13%; Vaccinia Venus = ?
Shown for COc1cc(/C=N/O)cc(Br)c1OS(=O)(=O)c1ccc(C)cc1 : VACV mCherry inh = ?; Vaccinia Venus = ?

The list continues.
SMILES	VACV mCherry inh	Vaccinia Venus
CC(C)(C)Cc1c(-c2cccc(Br)c2)nc2ccc(Cl)cn12	i	-1%
COC(=O)c1ccccc1NC(=O)Cn1cnc2c(cnn2-c2ccc(C)c(C)c2)c1=O	.	-14%
COCC(C)OC(=O)C(C#N)c1nc2ccccc2nc1N1CCN(Cc2ccccc2)CC1 (stereo not given)	.	-9%
CC1CCCC(C)N1C(=O)COc1cccc(Oc2ccccc2)c1 (stereo not given)	-24%	-20%
O=C(Nc1ccc(Nc2ccccc2)cc1)c1ccc(F)cc1	-17%	-19%
Cc1ccc(S(=O)(=O)NCC(=O)N(CC(=O)NC2CCCC2)CC2CCCO2)cc1 (stereo not given)	-22%	-12%
COc1ccc(NC(=O)COC(=O)CCCOc2ccc(Cl)cc2Cl)cc1Cl	i	-16%
COc1cccc(NC(=S)NCCN2CCOCC2)c1	-10%	0%
COc1ccc(-c2nnc(CSc3nc4ccccc4c(=O)n3CC3CCCO3)o2)cc1OC (stereo not given)	i	11%
CCC(C)(CN(C)C)OC(=O)c1ccccc1 (stereo not given)	-5%	-18%
CCCN(CCC)S(=O)(=O)c1ccc(C(=O)Nc2cc3oc4ccccc4c3cc2OC)cc1	-17%	-7%
Cc1cc(C)nc(NC(=O)c2ccc(C)c(C)c2)n1	i	-15%

Gathered by group, those above with a tert-butyl group.
SMILES	VACV mCherry inh	Vaccinia Venus
CC(C)(C)CC(C)(C)Nc1c(-c2ccc(O)cc2)nc2cnccn12	-17%	-27%
CC(C)(C)Cc1c(-c2cccc(Br)c2)nc2ccc(Cl)cn12	i	-1%

(listing goes on)
SMILES	VACV mCherry inh	Vaccinia Venus
COc1ccc(C(=O)Nc2c(N)nc[nH]c2=O)cc1	i	16%
CSCCC(NC=O)C(=O)NC(C)C(=O)O (stereo not given)	i	-12%
O=C(c1cccnc1)C1CCCN(Cc2nc(Cc3ccccc3F)no2)C1 (stereo not given)	-25%	-9%
O=C(Nc1ccccn1)c1ccc(=O)[nH]n1	i	0%
Cc1cc(C)c(Cn2c(=O)n(CCC(=O)NCCc3ccccc3)c(=O)c3ccccc32)c(C)c1	4%	19%
CC1=NN(Cc2ccccc2)C(=O)C1C(c1ccc(Cl)cc1)C(C#N)C#N (stereo not given)	-28%	-24%
CCOC(=O)C1=CCN(S(=O)(=O)c2ccc(F)cc2)C1c1ccc(Cl)c(Cl)c1 (stereo not given)	7.9µM*	13µM*
CC(C)c1ccc(NC(=O)C2C3C=CC4(CN(Cc5cccnc5)C(=O)C24)O3)cc1 (stereo not given)	i	-13%
COc1ccc(C(=O)Cn2cc[n+](C)c2)cc1	-27%	-17%
COc1ccc(CC(=O)Nc2c3c(nn2-c2cccc(C)c2C)CS(=O)C3)cc1OC (stereo not given)	-4%	-2%
CN1CCN(C(=O)COc2ccc(S(=O)(=O)Nc3ccc(Cl)cc3)cc2)CC1	i	-2%
Cn1c(=O)c2c(nc(SCCN3CCOCC3)n2Cc2ccccc2Cl)n(C)c1=O	i	-14%
CCCOc1c(Br)cc(C2C3=C(CCCC3=O)N(CC)C3=C2C(=O)CCC3)cc1OC	?	-12%
COc1ccc(CC2(CO)CCN(Cc3ccc4c(c3)CCO4)CC2)cc1	-28%	-7%
O=C(c1c(F)cccc1F)N1CCN(c2cccc(C(F)(F)F)c2)CC1	.	?
Oc1c(Cl)cc(Cl)cc1/C=N/c1ncn[nH]1	i	-8%
CSc1ccccc1OCc1cc(C(=O)NCCN2CCCC(O)C2)no1 (stereo not given)	-13%	-8%
COc1cc(/C=N/OCC(=O)NC2CCS(=O)(=O)C2)ccc1OC(F)F (stereo not given)	-2%	-3%
O=C(CSc1nnc(CNC(=O)c2ccco2)o1)Nc1ccc(F)cc1F	i	-10%
COc1ccccc1NC(=O)CSc1oc(-c2cccs2)nc1S(=O)(=O)c1ccccc1	-15%	-10%
CSCC(CO)NS(=O)(=O)c1ccc(C)cc1 (stereo not given)	-21%	-18%
COc1ccc(OC)c(C(=O)c2ccccn2)c1	-9%	-6%
CC(C)c1ccc(NC(=O)CCNC(=O)Cn2ccc3ccccc3c2=O)cc1	-13%	-7%
CCOC(=O)Cc1c(C)c2ccc(N(CC)CC)cc2oc1=O	i	-23%
COc1ccc2c(c1)c1c(c(=O)n(CCc3ccccc3)c(=O)n1Cc1ccccc1)n2C	12%	-8%
Cc1cc(C2(c3ccc(O)c(C)c3)C(=O)Nc3ccccc32)ccc1O	.	?
Cn1cc(CCC(=O)N2CCCC(CCC(=O)NCc3ccc(F)c(F)c3)C2)cn1 (stereo not given)	-24%	-9%
Cc1ccc2c(CC(=O)N3CCN(c4cccc(Cl)c4)CC3)coc2c1C	-6%	-5%
Cc1c(NC(=O)CSc2nnc(-c3cccc(Cl)c3)o2)c(=O)n(-c2ccccc2)n1C	.	5%
CCOC(=O)C1CCCN(C(=O)c2cc3c(=O)n(C)c4ccccc4c3s2)C1 (stereo not given)	-3%	-1%
Cc1cc(Cl)ccc1OCCn1cncn1	i	-14%
CCN(CCCC(=O)c1ccc(F)cc1)CCc1ccccc1	-18%	-20%
C[C@@H]1CN([C@H](C)CO)C(=O)CCCn2cc(nn2)CO[C@H]1CN(C)C(=O)Nc1cccc2ccccc12	-13%	-9%
COc1ccc(C2N(C(=O)CN3CCCC3)CCCN2S(=O)(=O)c2ccccc2)cc1 (stereo not given)	i	0%
Cc1ccn2c(NC3CCCCC3)c(-c3cccc(SC4CCCCC4)c3)nc2c1	?	?
O=C1CC(c2ccccc2)c2c(O)cc(O)cc2O1 (stereo not given)	-18%	-7%
CN(C)S(=O)(=O)c1ccc2c(c1)/C(=C/c1cc3c([nH]1)CCCC3)C(=O)N2	-10%	32%[activator]
Cc1ncc([N+](=O)[O-])n1CCN1C(=O)c2ccccc2C1=O	-10%	-6%
Cc1cc(=O)n2[nH]c(-c3ccc(Cl)cc3)cc2n1	.	-20%
COc1ccc(NC(=S)Nc2cccnc2)c(OC)c1	i	5%
COc1cc(Cl)c(C)cc1NC(=O)COC(=O)c1cc(SC)ccc1Cl	i	4%
Cc1cc(C(=O)N/N=C(\CCC(=O)O)c2cccs2)c2ccccc2n1	-14%	-25%
CCOC(=O)c1noc2ncn(CC(=O)Nc3ccc(F)cc3Cl)c(=O)c12	8%	20%
CC(NC(=O)c1cccnc1)C(c1cccs1)N1CCOCC1 (stereo not given)	-10%	-5%
COc1ccc2oc(C(=O)OC(C)C(=O)NCc3ccccc3)c(C)c2c1 (stereo not given)	-16%	-16%
CN(Cc1nc2ccc(F)cc2[nH]1)C(=O)C1CCC(=O)N(C2CC2)C1 (stereo not given)	i	-14%
